RecA splice inh – Mtb RecA intein splicing inhibitors, primary screen, biochemical, fluorescence, HTS; Protein RecA (Mycobacterium tuberculosis (strain ATCC 25618 / H37Rv)), P9WHJ3; cell-free RecA intein splicing; inhibition, %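 (about 9 µM by stock and volumes)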; actives 0.75% (n = 290,000); AID 2221, 2009; in the data active = inhibition above about 30%; inconclusive = no clear call, values can overlap the other calls;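 note: 0% = vehicle wells and 100% = reference inhibitor control wells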
Target sequence (P9WHJ3 whole entry, looked up, canonical isoform): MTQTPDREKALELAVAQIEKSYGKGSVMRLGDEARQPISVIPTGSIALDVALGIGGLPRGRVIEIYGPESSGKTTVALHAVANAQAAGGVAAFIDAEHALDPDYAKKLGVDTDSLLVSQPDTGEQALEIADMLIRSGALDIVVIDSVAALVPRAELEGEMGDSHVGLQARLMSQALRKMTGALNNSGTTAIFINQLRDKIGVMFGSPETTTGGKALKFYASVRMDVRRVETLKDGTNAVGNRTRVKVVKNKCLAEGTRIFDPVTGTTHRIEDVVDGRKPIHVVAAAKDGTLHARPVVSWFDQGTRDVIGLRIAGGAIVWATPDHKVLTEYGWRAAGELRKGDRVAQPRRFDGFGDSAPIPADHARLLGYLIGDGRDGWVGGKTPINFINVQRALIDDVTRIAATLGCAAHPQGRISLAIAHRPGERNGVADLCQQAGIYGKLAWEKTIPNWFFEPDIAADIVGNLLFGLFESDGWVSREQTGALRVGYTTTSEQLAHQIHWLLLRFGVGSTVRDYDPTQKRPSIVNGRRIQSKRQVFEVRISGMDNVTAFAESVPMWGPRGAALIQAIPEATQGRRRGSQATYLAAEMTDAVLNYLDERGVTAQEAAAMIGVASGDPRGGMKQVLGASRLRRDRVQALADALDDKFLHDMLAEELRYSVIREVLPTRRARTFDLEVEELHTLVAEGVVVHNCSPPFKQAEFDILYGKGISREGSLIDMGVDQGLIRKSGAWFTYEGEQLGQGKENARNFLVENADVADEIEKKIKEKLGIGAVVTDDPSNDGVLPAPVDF
Mtb growth – M. tuberculosis H37Rv growth inhibitors, H37Rv strain (AID 1626). M. tuberculosis H37Rv growth inhibition; higher % means a stronger effect. inhibition, % at 10 µM; hits with a dose series show IC50 in µM. actives 0.95% (n = 220,000);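 active = confirmed in a dose series; inconclusive = inhibition above 80% but not taken into the dose series; inactive = below 80% or under 30% at every dose of the series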;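 note: bacteria incubated seven days before Alamar blue readout; 0% = bacteria only wells and 100% = bacteria with antibiotic wells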
YopH PTP inh – YopH tyrosine phosphatase inhibitors, primary screen, biochemical, fluorescence Ex485/Em525 | YopH tyrosine phosphatase [Yersinia enterocolitica] | inhibition, %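 (about 10 µM by stock and volumes)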 | actives 0.16% (n = 140,000);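 active = inhibition of 50% or more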;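 note: controls were vehicle for no effect and minimum signal wells for full effect; inactives centre near -20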
Arbovirus inh – antivirals against arbovirus infection, primary screen, cell-based, full library, 10K replicate subset. arbovirus infection cell-based antiviral screen. inhibition, % at 10 µM. actives 0.37% (n = 200,000). AID 1251, 2008;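 active = inhibition from about 30%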;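 note: bluetongue infection of BSR cells; cell survival read as ATP light after 72 h; 0% = infected wells without compound and 100% = uninfected wells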
Mtb bLac sens – beta-lactam sensitization of Mtb H37Rv, H37Rv | M. tuberculosis H37Rv growth with meropenem, percent inhibition; hits of this screen are not shown here | inhibition, % at 25 µM | actives 0.27% (n = 330,000);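 active = about 74% or more and at least 40 points above the plate without the antibiotic, then above 30% in a dose series; inconclusive = first-round hits that could not be retested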;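 note: growth measured after seven days incubation then overnight dye step; 0% = bacteria only wells and 100% = bacteria with antibiotic; twin plates without the antibiotic show which effects depend on it; some results filed as inactive read as strong as hits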
Arbovirus inh repeat – also measured in Arbovirus inh; calls as there; inhibition, %; measured here: 10K subset replicate screen; many hits read low in the repeat;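 first of two repeat runs on a subset; 0% = infected and 100% = uninfected wells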
An asterisk follows results filed as active; ? = inconclusive; / = no result given; & = joins results of further samples. An excerpt (hit frequency here may not be typical).

SMILES	RecA splice inh	Mtb growth	YopH PTP inh	Arbovirus inh	Mtb bLac sens	others
CCn1cc(C(=O)O)c(=O)c2ccc(C)nc21	-1.4&-1.9	-16%&-7%	-10	7	5
CCN1CCN(CCNC(=O)c2ccc(/C=C3/Sc4ccccc4N(Cc4cccc(C)c4)C3=O)cc2)CC1	4.5	65%	/	-29	78
COc1cccc(CN2CCN(C(c3ccccc3)c3ccccc3)CC2)c1O	11	/	/	/	24
C[C@@H]1CCC[C@@]2(O[C@@H](CCO)C[C@@H](O)[C@@H]2O)O1	-1.2	-9%	/	/	-10
CCOC(=O)C1C(=O)C=C(c2cccc(NS(C)(=O)=O)c2)CC1c1ccco1 (stereo not given)	0.3	-7%	-9	1	1
CC(=O)Oc1ccc(C(c2ccc(OC(C)=O)cc2)c2ccccn2)cc1	4.1	1%	-29	-4	1
OC[C@H]1O[C@@H]2O[C@H]3[C@H](O)[C@@H](O)[C@@H](O[C@H]4[C@H](O)[C@@H](O)[C@@H](O[C@H]5[C@H](O)[C@@H](O)[C@@H](O[C@H]6[C@H](O)[C@@H](O)[C@@H](O[C@H]7[C@H](O)[C@@H](O)[C@@H](O[C@H]1[C@H](O)[C@H]2O)O[C@@H]7CO)O[C@@H]6CO)O[C@@H]5CO)O[C@@H]4CO)O[C@@H]3CO	-0.6	/	/	/	2
COc1ccc(CNC(=O)CCS(=O)(=O)c2ccc3c(c2)CC(C)N3C(=O)C2CC2)cc1 (stereo not given)	0.6	/	/	/	-2
Cc1[nH]c2ccccc2c1C(=O)CSc1nc2ncc(Cl)cc2[nH]1	-1.4	2%	/	-6	-12
CN(C)CCN1C(=O)C2C3C=CC(C3)C2C1=O (stereo not given)	-1.4	0%	/	-4	-3
C=CCn1c(COc2ccc(CC)cc2)nnc1SCC(=O)N(C)C1CCS(=O)(=O)C1 (stereo not given)	0.0	-7%	-31	9	-8
COc1ccc(Oc2ncnc3c2oc2ccc(Br)cc23)cc1	-1.9	-4%	/	/	?
Cc1nnc2ccc(-c3cccc(NS(=O)(=O)c4cc(F)ccc4F)c3)nn12	-2.5	/	/	/	-11
Cc1c(-c2ccccc2)[nH]n2c(=O)c3c(nc12)CCCC3	-2.2	7%	-29	2	-5
COc1ccc(CNC(=O)CNS(=O)(=O)c2ccc(Cl)cc2)cc1	1.3	1%	-37	4	4
Cc1cccc(NC(=O)c2n[nH]c([N+](=O)[O-])c2Br)c1C	-1.0	-4%	/	19	-3
COC(=O)C1(C)CCC(C(=O)Nc2ccccc2)C1(C)C (stereo not given)	-2.4	/	/	/	7
O=S(=O)(c1ccc(F)cc1)N1CCC(N2CCCC2)CC1	/	-3%	-22	-4	1	Arbovirus inh repeat=0
O=C(N/N=C/c1cc(Cl)cc([N+](=O)[O-])c1O)C(O)(c1ccccc1)c1ccccc1	11	/	/	/	7
Cc1ccc(C(=O)Cn2c(C(=O)OCCO)cc3ccccc32)cc1	0.5	/	/	/	82
CC1CCN(S(=O)(=O)c2ccc(NC(=O)Cn3nnc(-c4ccccc4)n3)cc2)CC1	3.6	7%	9	2	0
Cn1cccc1Cc1nnc(SCC(N)=O)n1-c1ccc(F)cc1	1.5	2%	-27	9	?
CCc1ccccc1N/C(=N\S(=O)(=O)c1ccccc1)C(F)(F)F	-1.0	-3%	0	0	6
Cc1ccc(NC(=O)CS(=O)CC(=O)Nc2ccc3c(c2)OCO3)cc1Cl (stereo not given)	3.2	71%	-27	-10	94
CN1CCN(S(=O)(=O)c2ccc(Sc3nc4ccccc4[nH]3)c3nsnc23)CC1	-4.3	2%	-11	0	-7
O=C(O)CSCC(=O)N1CCN(c2ncnc3scc(-c4ccccc4)c23)CC1	-0.4	/	/	/	0
O=C(O)CCSc1nnc(-c2ccc3c(c2)OCO3)o1	-3.3	-8%	-33	1	-6
COc1ccc(CCOC(=O)c2ccc(N)c([N+](=O)[O-])c2)cc1	0.9	/	/	/	100
CC(=O)OC(C(=O)N1CCN(c2ccccc2F)CC1)c1ccccc1 (stereo not given)	/	-6%	11	2	-6
Cc1cc(=O)[nH]c2c(C)cc(S(=O)(=O)NCc3ccccc3)cc12	-4.2	/	/	/	0
O=C1c2ccccc2C(=O)N1CCCCN(C(=O)c1cc([N+](=O)[O-])ccc1Cl)c1ccc(Cl)cc1	3.7	3%	-4	-6	-5
CSc1nnc(-c2ccc(C(F)(F)F)nc2C)o1	-1.7	-4%	/	/	-1
OCCC1CN(C2CSCCSC2)CCN1Cc1ccccc1 (stereo not given)	-2.3	-2%	/	6	10
O=C(c1ccc(Cl)cc1)C1C2C(=O)N(c3ccccc3)C(=O)C2C2CCCN21 (stereo not given)	-0.2	1%	-24	1	/
Oc1ccc2oc3c(c2c1)CCCC3	0.6	?	6	6	99
O=c1nc(-c2ccccc2)cn[nH]1	0.1	-8%	-55	-1	-9	Arbovirus inh repeat=-5
COc1ccccc1N1CCN(c2nccc(C)n2)CC1	1.2	/	/	/	5
NC(=O)CSc1nnc2ccc(-c3ccco3)nn12	-0.5	1%	/	5	15
CC1(C)CC(=O)C=C(NNC(=O)C2CCCCC2)C1	-1.4	-1%	6	0	-7
O=C(Nc1nnc(Cc2ccccc2)s1)c1cnccn1	-1.2	?	/	-6	81
CS(=O)(=O)c1cccc(NC(=O)C2CC2)c1	-2.3	8%	/	2	-7
N#C/C(=C\c1cccs1)C(=O)NCc1ccccc1	-1.0	-1%	-25	-5	-2
CCN=C1SC(CC(=O)Nc2ccccc2)C(=O)N1CC (stereo not given)	-2.1	0%	-83	11	-8
O=C1COc2ccc(S(=O)(=O)Nc3ccc(F)cc3)cc2N1	-0.7	/	/	/	-14
Cc1cc(N)n2nc(C(F)(F)F)nc2n1	-1.6	-3%	/	10	-3
COC(=O)C1CSC(C(=O)OC)N1C(=O)Nc1c(C)cccc1C (stereo not given)	1.9	-1%	-22	8	-4
O=C1CCN(CCc2ccccc2)CCN1[C@H](COc1ccccc1)c1ccccc1	3.0	/	/	/	44
Cc1c(C(=O)NCc2ccc(F)cc2)oc2ccc(S(=O)(=O)N3CCOCC3)cc12	1.2	/	/	/	-2
O=C1CCCc2ccccc2N1Cc1ccccc1	1.8	4%	/	3	-3
O=C(COC(=O)CNC(=O)c1ccco1)Nc1ccc(Cl)cn1	3.5	-7%	-19	3	-6
CN(Cc1ccccc1)S(=O)(=O)c1ccc(Cl)c(C(=O)OCC(N)=O)c1	-0.6	5%	/	/	-6
CC(C)N(C(=O)C(=O)c1cccn1-c1ccccc1C#N)C(C)C	-2.1	-11%	-19	-37	-5
CN(C)S(=O)(=O)c1ccc(N2CCCC2)c(C(=O)Nc2cccc(F)c2)c1	1.4	/	/	/	-8
COc1cc2c3nnc(-c4ccccc4)c-3cn(Cc3ccc(F)cc3)c2cc1OC	-124	27%	/	-10	62
O=C(NCc1cccs1)c1cccnc1Cl	2.9	3%	-18	-2	1
Cn1cc(CCC(=O)N2CCC3(CC2)OCCO3)c2ccccc21	-2.1	1%	-51	0	2
Cc1ccc(S(=O)(=O)NCCCNc2ccc([N+](=O)[O-])cc2)cc1	5.0	-2%	/	3	6
Cc1ccccc1NC(=O)C1COc2ccccc2O1 (stereo not given)	-4.3	/	/	/	2
COc1ccc(Cc2nnc(SCc3ccc([N+](=O)[O-])cc3)o2)cc1	0.3	3%	/	5	20
CN(C)CCCNC(=O)c1cc2c3ccccc3n(C)c2s1	-1.2	-1%	-6	-13	0

Fetched one by one from the entries so far, four records:
SMILES	RecA splice inh	Mtb growth	YopH PTP inh	Arbovirus inh	Mtb bLac sens	others
COc1ccc(Cc2nnc(SCc3ccc([N+](=O)[O-])cc3)o2)cc1	0.3	3%	/	5	20
Cn1cc(CCC(=O)N2CCC3(CC2)OCCO3)c2ccccc21	-2.1	1%	-51	0	2
CN(C)CCCNC(=O)c1cc2c3ccccc3n(C)c2s1	-1.2	-1%	-6	-13	0
O=C1CCN(CCc2ccccc2)CCN1[C@H](COc1ccccc1)c1ccccc1	3.0	/	/	/	44

Structures listed so far containing a thiophene ring, fused or not, in the order listed:
SMILES	RecA splice inh	Mtb growth	YopH PTP inh	Arbovirus inh	Mtb bLac sens	others
O=C(O)CSCC(=O)N1CCN(c2ncnc3scc(-c4ccccc4)c23)CC1	-0.4	/	/	/	0
N#C/C(=C\c1cccs1)C(=O)NCc1ccccc1	-1.0	-1%	-25	-5	-2
O=C(NCc1cccs1)c1cccnc1Cl	2.9	3%	-18	-2	1
CN(C)CCCNC(=O)c1cc2c3ccccc3n(C)c2s1	-1.2	-1%	-6	-13	0

Remaining list, next part:
SMILES	RecA splice inh	Mtb growth	YopH PTP inh	Arbovirus inh	Mtb bLac sens	others
COCCN(C(=O)COC(=O)CCn1c(C)csc1=O)c1c(N)n(Cc2ccccc2)c(=O)[nH]c1=O	-0.5	/	/	/	-9
C/C(CC(=O)NC(C)(C)C)=N\NC(=O)c1ccccc1N	-4.2	2%	/	-2	4
Cc1cccc(NC(=O)CSc2n[nH]c(-c3ccncc3)n2)c1C	-1.9	/	/	/	-8
CCc1nnc(NC(=O)c2cc(S(=O)(=O)N3CCN(c4ccccc4)CC3)ccc2Cl)s1	-4.2	-8%	-136	2	-9
O=C(O)C1C2C=CC3(CN(C4CCCC4)C(=O)C13)O2 (stereo not given)	2.6	-8%	-19	-3	?	Arbovirus inh repeat=-1
Cc1cc(OCC(=O)NCCc2ccc(S(N)(=O)=O)cc2)c2c(C)cc(=O)oc2c1	-1.6	/	/	/	4
O=C(NN1CC(C(=O)OCc2ccc(Cl)cc2Cl)CC1=O)c1ccccc1 (stereo not given)	2.1	/	/	/	5
COCCCNC(=O)CCc1nc(-c2ccccc2)no1	0.6	-8%	-33	-3	-6
CCOc1ccc(NC(=O)CN(C)C(=O)CCCc2nc3ccccc3c(=O)[nH]2)cc1OCC	2.8	/	/	/	-3
CN1CCN(Cc2nc(Cc3cccc(F)c3)no2)CC1c1ccccc1 (stereo not given)	3.5	-5%	/	-9	2
Cc1ccn2c(=O)nc(SCC(=O)N3CCN(c4ccccc4)CC3)nc2c1	-1.3	/	/	/	3
NC(=O)c1ccccc1NC(=O)Nc1cccc(Cl)c1	2.5	-2%	1	-4	-12
Cc1sc2ncnc(Sc3ccccc3C(=O)Nc3ccc(Br)cc3)c2c1C	7.5	14%	-35	12	4
O=C(COc1ccccc1)Nn1cnc2ccccc21	-0.3	-9%	-21	-3	7
N#Cc1c(N)nc(SCc2ccccc2)c(C#N)c1-c1ccco1	-6.3	13%	-34	1	3
O=C(NCCc1ccc(F)cc1)c1coc(=O)c(Br)c1	-2.4	/	/	/	-1
Cc1cc(C)c(NC(=O)C(C)Sc2nnc(-c3ccco3)n2-c2ccccc2)c(C)c1 (stereo not given)	/	9%	-15	13	/
Cc1ccc(S(=O)(=O)N(CC(O)CN2CCCCC2)c2cccc([N+](=O)[O-])c2)cc1 (stereo not given)	-0.9	/	/	/	7
O=C(O)CCC(=O)Nc1ccc(C(=O)N2CCCCC2)cc1	-1.8	-13%	-7	5	4
CCC1Oc2ccccc2N(CC(=O)NCCCN2CCCCC2C)C1=O (stereo not given)	-2.3	-5%	-29	2	2
O=C(CSc1nnc(CNC(=O)c2ccccc2)o1)NCc1ccccc1Cl	0.0	/	/	/	-4
CC(C)OCCCn1c(-c2ccc(Br)cc2)c[nH]c1=S	0.2	7%	/	1	9
Cc1ccc(S(=O)(=O)Oc2cccc(/C=N/n3cnnc3)c2)cc1	2.6	-3%	-30	-10	-4
Cn1c(=O)c2c(nc(CN3CCN(Cc4ccccc4)CC3)n2CCN2CCOCC2)n(C)c1=O	-0.3	-20%	-40	3	5
CSc1nsc(SCC(=O)Nc2ccc(F)cc2F)n1	2.3	/	/	/	99
CC1(C)Cc2c(sc3c2c(=O)n(-c2ccc(Cl)cc2)c(=O)n3CC(N)=O)CO1	-2.1	-11%	/	/	-3
CCc1ccccc1NC(=O)CN1CCN(CC(=O)Nc2ccc(-c3ccccc3)cc2)CC1	1.7	/	/	/	1
CCc1ccccc1NC(=O)CSc1nnc(CCNC(=O)OC(C)(C)C)o1	-1.2	-7%	/	/	-7
CNC(=O)COC(=O)/C=C/c1ccco1	1.8	-5%	/	3	3
Cc1cccc(NC(=O)C2CCCN(S(=O)(=O)c3ccc4c(c3)oc(=O)n4C)C2)c1 (stereo not given)	1.1	-7%	/	/	-6
Cc1cc(NC(=O)CSc2cn(CCNC(=O)c3ccc(F)cc3)c3ccccc23)no1	/	4%	-29	3	-9

High-throughput results (PubChem)
